# HCMV UL50-53 inh – disrupts HCMV UL50-UL53 complex binding; 190,000 compounds, 0.15% hits; inhibition, % (test concentration not listed); HTRF UL50-UL53 interaction, normalized percent inhibition;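 active means both replicates at 50% or more, plus weaker picks with an unusually low signal ratio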;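 further: stock transfer was 100 nL into about 20 µL; 0% = negative control wells and 100% = wells with untagged competitor protein; inactives centre near -12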
# GIV-Gai inh – blocks GIV peptide binding to rat Galpha-i3. P08753. Galpha-i3/FITC-GIV peptide fluorescence polarization, 90 min; active compounds read low; scaled: aluminum fluoride 0%, vehicle 100%. percent of control (FP), % (no concentration beside the values). 210,000 compounds, 0.42% hits;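 active means replicate mean at 85% of control or lower, very high polarization wells dropped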;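 further: wells of about 15 µL received 100 nL stock; the first replicate is given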
# Target sequence (P08753 whole entry, looked up): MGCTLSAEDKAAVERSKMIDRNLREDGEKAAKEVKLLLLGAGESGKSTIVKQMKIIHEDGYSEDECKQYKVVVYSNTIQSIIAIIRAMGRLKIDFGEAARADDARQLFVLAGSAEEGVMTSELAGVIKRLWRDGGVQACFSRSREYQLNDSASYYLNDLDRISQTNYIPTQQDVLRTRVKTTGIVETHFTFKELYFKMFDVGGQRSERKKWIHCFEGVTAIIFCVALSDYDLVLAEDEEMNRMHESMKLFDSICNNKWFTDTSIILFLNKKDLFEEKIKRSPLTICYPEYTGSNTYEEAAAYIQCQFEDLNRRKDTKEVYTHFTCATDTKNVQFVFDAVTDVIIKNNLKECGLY
# Sa growth inh – inhibitors of Staphylococcus aureus growth at 42 °C. relative growth, % (no concentration beside the values). 170,000 compounds, 0.53% hits. S. aureus RN4220 growth, OD600, 20 h; active compounds read low;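 active means growth at 42 °C up to 50% and 20 or more points under that at 30 °C, or under 10% at both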;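 further: 300 nL library stock went into each well; scaled to the means of positive and negative controls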
# Sa growth inh second temp – recorded beside Sa growth inh, whose call it bears; relative growth, %; measured here: growth at 30 °C;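 optical density after 20 h as mean of two plates; 100% = untreated growth and lower means inhibition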
# An asterisk follows results filed as active; . = not tested or not shown; & = joins results of further samples.
Molecule	HCMV UL50-53 inh	GIV-Gai inh	Sa growth inh	Sa growth inh second temp
Cc1c(C(=O)NCCC2=CCCCC2)sc2ncnc(N3CCN(C)CC3)c12	-36	101	.	.
O=c1cc(-c2ccccc2)nc(SCc2nc(-c3ccc(Cl)cc3)no2)[nH]1	.	93	114	92
Cc1onc(-c2c(Cl)cccc2Cl)c1C(O)c1ccc(F)cc1 (stereo unspecified)	-13	105	102	89
O=C(NCc1ccc(S(=O)(=O)NCCN2CCCC2)s1)c1ccc(Cl)cc1	-29	101	124	88
COc1ccc(OCCN(C)C(=O)c2cccc3cccnc23)cc1	-25	.	96	79
COc1ccccc1NC(=O)Cn1c(=O)n(-c2ccc(C)cc2)c(=O)c2ccccc21	-19	104	.	.
COc1cc(/C=C2\SC(=S)N(CCC(=O)Nc3ccc(C(=O)O)cc3)C2=O)cc(OC)c1OC	-64	103	.	.
CCn1nc(C)c2c1c(=O)n(CCc1ccccc1)c(=O)n2Cc1ccccc1	-3	100	.	.
Cn1c(SCc2nc3ccccc3n2CC(N)=O)nc2ccccc21	-14	97	.	.
O=C1CN(c2ccc(OC(F)(F)F)cc2)C(=O)CN1CC1CC1	-35	102	88	87
CCOc1ccc2nc(N3CCCC(C(=O)NCCc4ccc(S(N)(=O)=O)cc4)C3)sc2c1 (stereo unspecified)	-18	103	.	.
C=CCN(CC=C)C(=O)CSc1nnnn1-c1ccc(C)cc1C	-13	.	124	88
COC(=O)c1cn(CCC#N)nc1-c1ccc2ccccc2c1	.	102	107	70
COCCn1c(C)cc(O)c(C(c2ccccc2)N2CCN(c3ccccc3F)CC2)c1=O (stereo unspecified)	.	107	97	102
NC1C=CC=C(C(=O)O)C1 (stereo unspecified)	-5	111	.	.
CCCCC(=O)Oc1ccc2oc(-c3ccc(OC)cc3)cc(=O)c2c1	2	103	110	91
COc1ccc(CN(C)c2nc(-c3cccnc3)nc3ccccc23)cc1OC	-30	.	99	94
CCCOC(=O)C(CC)Oc1ccc2c(=O)c(Oc3ccccc3Br)coc2c1 (stereo unspecified)	-14	101	.	.
COc1ccc(-n2nc(C(=O)Nc3cc(OC)c(OC)c(OC)c3)c(=O)n(C)c2=O)cc1	.	110	92	106
CCOc1cc2[nH]c(=O)n(Cc3ccc(C(=O)NCCN(CC)CC)cc3)c(=O)c2cc1OCC	.	106	90	79
NC(=O)C1CCCN(S(=O)(=O)c2ccccc2)C1 (stereo unspecified)	-7	104	108	81
O=C(Cc1ccc(Cl)cc1)Nc1ccc2nn(-c3ccc(Cl)cc3)nc2c1	-52	106	96	87
O=C(NCc1cccs1)C1=CC=CN2CCS(=O)(=O)N=C12	-8	.	68	93
C/C(Nc1ccccc1C)=C1/CCOC1=O	-70	105	95	94
C=CCn1c(COc2ccc(CC)cc2)nnc1SCC(=O)c1cc(C)n(CCOC)c1C	-15	.	87	81
Cc1cc(C)n(C(=O)c2sccc2S(=O)(=O)N2CCN(c3cccc(Cl)c3)CC2)n1	11	100	.	.
COc1ccc(C(=O)c2oc3ccccc3c2NC(=O)COc2ccccc2)cc1	-38	103	103	88
O=c1[nH]nc(SCc2ncc(C(F)(F)F)cc2Cl)n1-c1ccccc1	-2	97	95	113
CCOC(=O)c1cc2c(=O)n3ccccc3nc2n(Cc2ccco2)c1=NC(=O)c1ccc(C)c(C)c1	-28	107	118	77
NC(=O)COC(=O)CCc1nc2ccccc2s1	-9	.	105	93
Cc1cc(C(=O)CSc2nnc(NC3CC3)s2)c(C)s1	-10	.	85	75
c1csc(Cc2nnc(SCc3cn4ccsc4n3)n2C2CCCCC2)c1	2	.	107	88
COc1ccc(OC)c(NC(=O)Cn2ccn(-c3ccc(OC)c(OC)c3)c(=O)c2=O)c1	-46	98	96	92
O=c1[nH]c2ccccc2nc1Cc1c(F)cccc1Cl	-10	103	.	.
N=C1S/C(=C\c2ccc(-c3ccc(F)cc3)o2)C(=O)N1c1ccc2c(c1)OCO2	-12	104	.	.
Cc1cccc(N2CCC(N=CN3CCOCC3)=N2)c1	-22	.	90	71

# Entries from the list above containing a CF3 group:
Molecule	HCMV UL50-53 inh	GIV-Gai inh	Sa growth inh	Sa growth inh second temp
O=C1CN(c2ccc(OC(F)(F)F)cc2)C(=O)CN1CC1CC1	-35	102	88	87
O=c1[nH]nc(SCc2ncc(C(F)(F)F)cc2Cl)n1-c1ccccc1	-2	97	95	113

# Continued:
Molecule	HCMV UL50-53 inh	GIV-Gai inh	Sa growth inh	Sa growth inh second temp
CCc1ccc(-c2cc(C)no2)cc1S(=O)(=O)NCc1cccs1	-21	102	92	79
Cc1ccc(-n2ncc3c(SCC(=O)NC(C)C)ncnc32)c(C)c1	-2	109	104	98
Cc1cc(NCC(C)C)n2nc(C(F)(F)F)c(-c3ccccc3Cl)c2n1	-20	104	.	.
CC[C@@]1(C)N[C@H](C(=O)O)CS1	-4	.	109	91
Oc1c(I)cc(I)c2cccnc12	-12	.	91	74
CN(Cc1ccccc1)C(=O)c1ccc2c(c1)N(Cc1ccccc1Cl)C(=O)c1ccccc1S2	.	106	146	107
O=S(=O)(NC1=NCCS1)c1ccc(N=NN2CCCCC2)cc1	-23	106	102	99
Cc1ccccc1-c1nc(CN2CCC(C(=O)NCCc3ccccc3)CC2)c(C)o1	-30	104	103	87
O=C(NCCc1cnc[nH]1)c1nc(Nc2ccc(F)cc2)c2ccccc2n1	-2	103	.	.
O=c1[nH]cnc2sc3c(c12)CCC3	-10	.	96	87
COc1cc2c(CCNC(C)=O)c[nH]c2cc1Cl	-6&-22	100	.	.
O=C(Nc1ccc(-n2cnnn2)cc1)c1ccc(S(=O)(=O)N2CCCc3ccccc32)cc1	-10	.	120	70
CC1CCC(NC(=O)C2(C)Cn3c(cc4occc43)C(=O)N2CCN(C)C2CCCCC2)CC1 (stereo unspecified)	0	104	.	.
COc1ccc(-n2ccn(CC(=O)Nc3ccccc3)c(=O)c2=O)cc1	-27	105	69	84
Cc1cc(C)n2cc(CNc3ccc(N4CCCC4=O)cc3)nc2n1	-26	.	78	94
Cc1ccc(C)c(-n2c(N)c(C#N)c3nc4ccccc4nc32)c1	-2	110	107	105
O=C(C1CCN(S(=O)(=O)c2cccs2)CC1)N1CCN(c2cccc(Cl)c2)CC1	7	106	99	93
CCOCCOC(=O)C1=C(C)NC2=C(C(=O)CC(C)(C)C2)C1c1cc(Br)c(O)c(OCC)c1 (stereo unspecified)	-4	104	.	.
CC1=NS(=O)(=O)c2cc(S(=O)(=O)CC(=O)Nc3cc(C)cc(C)c3)ccc2N1	-34	103	.	.
O=c1[nH][nH]c(=O)c2c(NS(=O)(=O)c3ccccc3)cccc12	.	107	81	82
CCOc1ccc(NC(NC(=O)c2cccs2)C(=O)c2ccccc2)cc1 (stereo unspecified)	.	100	93	85
CC1CN(C2=NC(=O)/C(=C\c3ccccc3)S2)CC(C)O1 (stereo unspecified)	-66	93	104	68
Cc1c(N2CCN(C(=O)c3cccc(Cl)c3)CC2)c(=O)n(C)c(=O)n1C	-24	99	.	.
COCCn1c(=NC(=O)CSC(C)=O)sc2cc(OC)ccc21	-16	102	94	72
CCOC(=O)CN=Cc1c(O)[nH]c2ccccc12	-24	106	96	99
CN(C)c1cc(O)c(C(=S)Nc2ccccc2)c(N(C)C)c1	-5	.	86	104
CC(C)NS(=O)(=O)c1ccc(OCC(=O)N2CCC(Cc3ccccc3)CC2)cc1	.	107	123	78
CC(=Nc1ccccc1C(F)(F)F)c1cccs1	-11	102	135	89
O=C(/C=C/S(=O)(=O)c1ccc(Br)cc1)c1ccc(F)cc1	-21	101	103	68
O=C(O)c1ccccc1C(=O)N1CCc2ccccc21	-3	.	125	95
CC(C)[C@@H](C(=O)OCc1cc(=O)n2ccsc2n1)N1C(=O)c2ccccc2C1=O	16	.	112	95
O=C(O)c1ccc(S(=O)(=O)N(Cc2ccco2)CC2CCCO2)cc1 (stereo unspecified)	.	97	103	75
CC(=O)N1CCc2c(sc3c2c(=O)n(-c2ccccc2)c(=O)n3Cc2ccccc2F)C1	2	98	95	86
O=C(Nc1cccc(F)c1)c1cccc2c1C(=O)N(Cc1cccnc1)C2	.	102	103	64
O=c1c(Cl)c(NCc2ccco2)cnn1-c1ccccc1	-6	.	108	102
COc1ccc(CNC(=O)c2cc3sccc3n2C)cc1	-22	100	103	91

# Some of these compounds in order of SMILES length, high to low:
Molecule	HCMV UL50-53 inh	GIV-Gai inh	Sa growth inh	Sa growth inh second temp
C=CCn1c(COc2ccc(CC)cc2)nnc1SCC(=O)c1cc(C)n(CCOC)c1C	-15	.	87	81
COc1ccc(C(=O)c2oc3ccccc3c2NC(=O)COc2ccccc2)cc1	-38	103	103	88
c1csc(Cc2nnc(SCc3cn4ccsc4n3)n2C2CCCCC2)c1	2	.	107	88

# Continued:
Molecule	HCMV UL50-53 inh	GIV-Gai inh	Sa growth inh	Sa growth inh second temp
Cc1ccc(NC(=O)c2ccc3nc[nH]c3c2)c(O)c1	-16	.	86	76
O=C(Nc1ccc(-c2cc3ccccc3oc2=O)cc1)c1ccc2c(c1)OCCO2	-16	98	.	.
COc1ccc(C2CC(=O)C3=C(C2)Nc2ccccc2NC3c2coc3ccccc3c2=O)cc1 (stereo unspecified)	-4	102	.	.
Cc1ccc(Cl)cc1NC(=O)c1ccc(-n2nc(OCc3ccc(Cl)cc3)ccc2=O)cc1	-38	107	.	.
Cc1ccccc1C(=O)Nc1nc2nc(-c3ccccc3)cc(=O)n2[nH]1	-9	96	82	82
O=C(CSc1nnc2ccc3ccccc3n12)Nc1ccccc1Cl	-8	104	106	81
Cc1c(-c2ccnn2C(=O)Nc2ccccc2)sc2ccccc12	-10	99	59	59
O=C(ON1C(=O)CCC1=O)c1ccc(Cl)cc1Cl	-15	106	95	82
Cc1ccc(-n2nnc(C(=O)OCc3cc(C)ccc3C)c2C)cc1	6	105	.	.
CC(C)(CO)NCc1ccc(-c2ccc(Cl)cc2Cl)o1	-39	102	.	.
COc1cccc(-c2nn(C)c3sc(C(=O)N4CCN(c5cccc(C)c5)C(C)C4)cc23)c1 (stereo unspecified)	-29	102	102	81
CCOC(=O)c1oc2c(c1C)/C(=N/O)CCC2	0	99	95	81
O=C(CN1C(=O)CSC1=O)Nc1ccccc1N1CCOCC1	.	103	131	95
O=C(O)CCCC(=O)Nc1ccccc1C(F)(F)F	10	109	110	97
N#C/C(=C\c1ccc(OC(=O)c2ccco2)cc1)C(=O)Nc1ccccc1Br	-16	102	118	79
COc1cccc(N2CCN(C(=O)c3c(C)oc4ncnc(N5CCOCC5)c34)CC2)c1	.	105	97	88
C=Cc1ccc(Cn2c(C(=O)O)c(CNCc3cc(OC)ccc3OC)c3ccc(C)cc32)cc1	.	111	124	92
C=CCNC(=O)c1cc(-c2ccc(O)cc2)on1	-3	97	107	86
CC1CCN(S(=O)(=O)c2ccc3ncn(CC(=O)NC4CCCCC4)c(=O)c3c2)CC1	10	106	.	.
CCc1ccc2nc(SCC(=O)N(CC)CC)c(C#N)cc2c1	-11	100	85	84
O=C(O)c1ccccc1S(=O)CCO (stereo unspecified)	8	99	99	93
CC1Cc2cc(S(=O)(=O)N3CCc4ccccc4C3)ccc2N1C(=O)C1CCC1 (stereo unspecified)	-5	106	.	.
CCCc1oc2ccc(NS(=O)(=O)c3ccccc3)cc2c1C(=O)OCC	-14	107	85	67
CN(C)CCn1c(CCCC(=O)N2CCc3ccccc32)nc2cccnc21	5	101	.	.
CC(NC(=O)c1ccccc1)c1ccccc1 (stereo unspecified)	-19	.	115	84
CCc1cc2c(COC(=O)c3cccc(NS(C)(=O)=O)c3)cc(=O)oc2cc1O	8	.	95	101
COC(=O)C(N)c1ccccc1 (stereo unspecified)	8	.	68	90
O=C(CCc1ccc(S(=O)(=O)N2CCOCC2)cc1)NCC(F)(F)F	-13	.	97	87
O=C(NC(Cc1c[nH]c2ccccc12)C(=O)NC1CCCCC1)OCc1ccccc1 (stereo unspecified)	-4	103	92	75
CCOc1ccc(CCNC(=O)c2ccc(-n3c(C)cc4c3CCC(C)C4)cc2)cc1OCC (stereo unspecified)	.	100	106	103
CCN(CC)C(=O)CSc1nnc2c(n1)[nH]c1ccc(C(C)C)cc12	-47	105	62	80
COCCN(Cc1nc2ccccc2c(=O)[nH]1)C(=O)Cn1cnc2sccc2c1=O	4	.	118	95
CNC(=O)Nc1cc(C(C)(C)C)no1	.	99	89	87
NC(=O)C12CCCC(Br)(CCC1)C2	-25	.	111	79
CC(C)(C)c1nnc(Nc2ccc(Cl)c(C(F)(F)F)c2)[nH]c1=O	-14	101	98	91
O=C(NC(C(=O)O)C12CC3CC(CC(C3)C1)C2)C1CCCCC1 (stereo unspecified)	-44	101	92	82
N#CC1=C(N)Oc2n[nH]c(-c3ccc4c(c3)OCO4)c2C1c1cccc(OC(=O)c2cccs2)c1 (stereo unspecified)	-16	99	.	.

# Bioassay records (PubChem)
